Mtb hypoxia rep – PubChem AID 1159583 | hit rate 0.1% among 300,000 | M. tuberculosis hypoxia-regulated fluorescent reporter, fluorescence | fluorescence inhibition, % (no concentration beside the values);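 active = 35 to 45% if threefold the growth effect, above 45% if 1.5-fold the growth effect; inactive = the rest, general growth blockers included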;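 note: wells of about 50 µL received 100 nL stock; 0% = vehicle wells and 100% = reference inhibitor wells; whole bacteria with a GFP reporter of the hypoxia response; strong numbers were not always called active; many hits fall short of the cut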
ugtP null kill – growth inhibition of ugtP-null S. aureus, primary screen, RN4220 ugtP deletion, OD600; 16 h; some inactives read as strong as hits; growth inhibition, % (no concentration beside the values); hit rate 0.54% among 330,000;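 active = z-score under -3 and OD600 up to 0.15 on both plates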;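 note: plate controls were untreated wells for no effect and antibiotic for full effect; wells of about 80 µL received 100 nL stock; the first replicate is given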
PrP 5UTR inh – inhibition of PrP 5' UTR reporter expression; cell-based PrP 5' UTR mRNA reporter, plate reader; inhibition, % (no concentration beside the values); hit rate 0.35% among 340,000;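 active = every replicate at 50% or more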;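 note: 0 = median of the neutral control wells; tested in H4 reporter cells; numbers are from one replicate; inactives centre near -14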
Autofluor counter – compound fluorescence in toxin protease inhibitor counterscreen. compound autofluorescence counterscreen, microsphere flow cytometry; stronger effect = higher value. fluorescence intensity (no concentration beside the values). hit rate 3.1% among 360,000. AID 624483;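 active = at least 3 SD above the mean of all compounds, about 16000 in these data; inconclusive = too few beads counted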;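 note: 100 nL of 1 mM stock went into each well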
RN4220 kill – growth inhibition of S. aureus RN4220, primary screen, OD600; hit rate 0.33% among 330,000; 16 h; inhibition, % (no concentration beside the values);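 active = z-score of -3 or lower and OD600 up to 0.18 on both plates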;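 note: plate controls were untreated cells for no effect and reference antibiotic for full effect; stock transfer was 100 nL into about 80 µL; one replicate is shown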
BJeLR viability – MLPCN primary cell-based screen for lethality selective to Ras in HRASV12 cells; hit rate 0.17% among 300,000; inhibition, % (concentration not given with the values); BJeLR (HRASV12) viability, CellTiter-Glo ATP luminescence, 48 h; reference of the scale not given here; AID 1554, 2009;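 active = replicate mean above 50%; inconclusive = above 50% but judged a plate artefact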;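 note: 50 nL library stock added to about 25 µL; numbers are from one replicate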
Mtb hypoxia rep growth – further read-out of Mtb hypoxia rep, marked with its call; growth inhibition, %; measured here: M. tuberculosis growth (absorbance);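 0% = vehicle and 100% = reference antibiotic; read after six days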
* = called active by the depositor; ? = inconclusive; nt = no result given.

SMILES	Mtb hypoxia rep	Mtb hypoxia rep growth	ugtP null kill	PrP 5UTR inh	Autofluor counter	RN4220 kill	BJeLR viability
Cc1sc2nc(CN3CCN(S(=O)(=O)c4cccc5nonc45)CC3)[nH]c(=O)c2c1C	nt	nt	1.9	-10.7	3536	1.4	-4.9
O=C(NCc1cccs1)c1ccc([N+](=O)[O-])cc1Cl	-1.3	-3.5	4.0	-37.5	2159	25.4	-15.6
CCN(CCNC(=O)C1CCCN(Cc2nc(-c3ccc(OC)cc3)oc2C)C1)c1ccccc1 (configuration not stated)	-8.5	6.9	-8.5	-5.4	21170*	-5.9	-2.6
Cc1nn(C)cc1S(=O)(=O)N1CCN(c2ccccc2)CC1	14.2	-3.1	9.5	-21.1	5537	0.9	-7.2
CCC1S/C(=N/N=C/c2ccco2)N(c2ccc(F)cc2)C1=O (configuration not stated)	nt	nt	nt	-29.3	2228	nt	-4.2
Cc1cccc2c(N=Nc3ccc(S(=O)(=O)Nc4cccc(Cl)c4)cc3[N+](=O)[O-])c(O)[nH]c12	-4.2	-1.3	-18.4	-9.3	2240	7.2	-7.2
N=c1c(C(=O)NCc2ccc(F)cc2)cc2c(=O)n3ccccc3nc2n1Cc1ccco1	nt	nt	nt	-38.9	3575	nt	0.9
Cc1cccc(OCC(=O)Nc2cccc(C(=O)NCC(C)C)c2)c1	12.0	2.2	10.1	7.9	10486	6.5	6.1
Cc1cccc(C)c1NC(=O)Cn1nnnc1N	5.9	10.7	6.5	-18.5	3770	3.8	2.8
Cc1ccc(Cl)cc1NC(=O)CON=C(N)c1ccccc1	0.3	-8.4	7.3	-21.3	3846	1.6	nt
CC1=CC(=NNC(=O)c2cccs2)CC(C)(C)C1	13.7	17.9	-2.3	nt	nt	5.2	nt
Cc1ccc(NC(=O)CSc2nnc(Cc3ccccc3)o2)cc1	13.3	8.3	1.8	-17.0	1976	2.3	0.0

2 consecutive entries out of the list so far, quoted:
SMILES	Mtb hypoxia rep	Mtb hypoxia rep growth	ugtP null kill	PrP 5UTR inh	Autofluor counter	RN4220 kill	BJeLR viability
CC1=CC(=NNC(=O)c2cccs2)CC(C)(C)C1	13.7	17.9	-2.3	nt	nt	5.2	nt
Cc1ccc(NC(=O)CSc2nnc(Cc3ccccc3)o2)cc1	13.3	8.3	1.8	-17.0	1976	2.3	0.0

Three structures from above, sorted by number of heavy atoms, falling.
SMILES	Mtb hypoxia rep	Mtb hypoxia rep growth	ugtP null kill	PrP 5UTR inh	Autofluor counter	RN4220 kill	BJeLR viability
Cc1cccc(OCC(=O)Nc2cccc(C(=O)NCC(C)C)c2)c1	12.0	2.2	10.1	7.9	10486	6.5	6.1
Cc1ccc(NC(=O)CSc2nnc(Cc3ccccc3)o2)cc1	13.3	8.3	1.8	-17.0	1976	2.3	0.0
O=C(NCc1cccs1)c1ccc([N+](=O)[O-])cc1Cl	-1.3	-3.5	4.0	-37.5	2159	25.4	-15.6

The listing continues:
SMILES	Mtb hypoxia rep	Mtb hypoxia rep growth	ugtP null kill	PrP 5UTR inh	Autofluor counter	RN4220 kill	BJeLR viability
NS(=O)(=O)c1ccc(NC(=O)c2ccc(OCC3CCCO3)cc2)cc1 (configuration not stated)	4.8	3.4	4.0	-3.6	3975	1.7	nt
Cc1ccn(CCC(=O)N2CCCC(CCC(=O)NCc3ccc(F)c(F)c3)C2)n1 (configuration not stated)	4.6	-0.5	14.8	-11.6	4635	6.9	5.1
CN(C)Cc1ccccc1C(O)(c1ccccc1)c1ccccc1	11.6	11.8	2.4	-16.2	3964	1.8	15.3
CCN(CC)S(=O)(=O)c1ccc(C)c(NC(=O)CN2CCN(C)CC2)c1	1.5	4.5	3.7	-7.8	4293	3.4	11.2
Cc1ccc(/C=C/C(=O)c2ccc(C)cc2)cc1	19.2	21.2	6.7	-28.6	5787	4.2	-2.6
COc1ccc(OCCSc2ncnc3nc[nH]c23)cc1	-1.1	5.2	4.5	-31.3	4231	1.2	-2.2
Cc1ccc(C(=O)N/N=C\c2ccc([N+](=O)[O-])s2)cn1	nt	nt	nt	-3.1	2631	nt	-20.1
O=C(CCCn1c(SCC(=O)NCC2CCCO2)nc2ccccc2c1=O)NCC1CCCO1 (configuration not stated)	4.4	2.5	0.9	-15.0	20974*	-1.6	nt
CC(C)c1ccc2oc(=O)cc(CN3CCN(c4ccc(F)cc4)CC3)c2c1	nt	nt	-21.8	-0.1	2121	2.2	-5.9
COc1ccc(OC)c(/C=N/Nc2nncn2/N=C/c2cc(OC)ccc2OC)c1	nt	nt	nt	-41.5	2100	nt	3.0
CC(C)CC1CN=C(N(C)C)N1CCCCc1ccccc1 (configuration not stated)	10.0	22.0	-14.6	nt	nt	1.2	nt
O=C(CNC(=O)c1cccc(Br)c1)NCCc1nc2ccccc2[nH]1	-0.2	1.2	6.6	nt	13512	-2.0	-10.7
COc1ccc(S(=O)(=O)N(CC(=O)NC2CC2)c2ccc(C)cc2)cc1OC	nt	nt	4.6	-20.5	3607	3.5	4.7
O=c1c(-c2c(O)cc(O)c3c2OC(c2ccc(O)cc2)CC3)c(-c2ccc(O)cc2)oc2cc(O)cc(O)c12 (configuration not stated)	-6.3	-1.4	19.2	nt	nt	-0.7	nt
Cc1ccc(-n2c(C)nc3ncnc(-c4ccccc4)c32)cc1	-2.2	3.9	4.1	1.5	2451	1.7	-2.0
CC(=O)N/C(=C\c1ccccc1)C(=O)NCc1ccc2c(c1)OCO2	7.4	7.8	5.0	-27.1	2834	2.7	-1.4
CCCCc1cc(=O)oc2cc(OCC(=O)NCCN3CCOCC3)c(Cl)cc12	2.1	-2.2	6.7	-22.1	5731	-2.2	-2.1
C=CCSc1nc(C)c(CC=C)c(=O)[nH]1	9.6	1.0	-6.7	-12.5	12896	4.7	3.4
O=C(NC(c1ccccc1)C(Cl)Cl)c1ccccc1 (configuration not stated)	6.7	1.2	0.5	-2.3	2244	3.8	-6.6
O=C(Nc1cccc(S(=O)(=O)N2CCOCC2)c1)c1cc(=O)[nH]c2ccccc12	5.7	-0.9	3.5	-32.3	3210	1.0	nt
C=CCc1ccc(OCCCOc2ccc(C)cc2OC)c(OC)c1	nt	nt	16.8	-30.3	2428	9.9	3.4
O=C1CC(=O)Nc2cc(S(=O)(=O)Nc3ccc(Cl)c(C(F)(F)F)c3)ccc2N1	-6.3	7.4	8.2	0.3	5233	1.8	8.8
CCCNC(=O)c1ccccc1NC(=O)c1ccc(CSc2ccccc2)cc1	12.8	9.9	-22.1	-12.0	2846	-13.2	1.7
O=C(O)COc1ccccc1/C=C1\SC(=O)N(Cc2ccc(F)cc2)C1=O	-1.6	-6.4	0.4	-2.3	2492	5.2	-1.7

Entries of single compounds from above. Order of screens: Mtb hypoxia rep, Mtb hypoxia rep growth, ugtP null kill, PrP 5UTR inh, Autofluor counter, RN4220 kill, BJeLR viability
`O=C(CNC(=O)c1cccc(Br)c1)NCCc1nc2ccccc2[nH]1` is listed with -0.2, 1.2, 6.6, nt, 13512, -2.0, -10.7
`COc1ccc(OCCSc2ncnc3nc[nH]c23)cc1` is listed with -1.1, 5.2, 4.5, -31.3, 4231, 1.2, -2.2
`CC(=O)N/C(=C\c1ccccc1)C(=O)NCc1ccc2c(c1)OCO2` is listed with 7.4, 7.8, 5.0, -27.1, 2834, 2.7, -1.4
`Cc1ccc(/C=C/C(=O)c2ccc(C)cc2)cc1` is listed with 19.2, 21.2, 6.7, -28.6, 5787, 4.2, -2.6
`CC(C)CC1CN=C(N(C)C)N1CCCCc1ccccc1` (configuration not stated) is listed with 10.0, 22.0, -14.6, nt, nt, 1.2, nt

Continuation.
SMILES	Mtb hypoxia rep	Mtb hypoxia rep growth	ugtP null kill	PrP 5UTR inh	Autofluor counter	RN4220 kill	BJeLR viability
COc1cc(C(=O)OCc2cccc(S(=O)(=O)N3CCOCC3)c2)ccc1OCC(C)C	9.2	4.7	9.6	-2.7	6480	4.3	nt
CCC1=C(OC(=O)N(CC)CC)N2C(=O)OC(=NCCc3c[nH]c4ccccc34)[C@]2(Cc2ccccc2)C2C1=CCC1C(=O)N(c3ccccc3)C(=O)C12 (some centres not stated)	0.7	-5.7	3.2	nt	nt	-1.8	nt
Cc1ccccc1CN1CCN(CC(=O)NCCCN2CCN(c3ccc(F)cc3)CC2)C1=O	9.2	14.7	-2.0	-6.1	2308	5.5	1.1
CC(C)C(O)(C#CCN1CCCCC1)c1ccccc1 (configuration not stated)	7.5	2.7	1.3	-21.4	10442	2.4	-9.8
CCCCn1c(N2CCC(Cc3ccccc3)CC2)nc2c1c(=O)[nH]c(=O)n2C	nt	nt	-23.7	-10.1	2315	-6.8	-4.6
CCOC(=O)c1sc(NC(=O)c2c(OC)cccc2OC)nc1C	7.4	1.4	-1.0	-7.6	2566	-11.7	8.1
COc1ccccc1N1CCN(C(=O)COc2ccc(Cl)cc2)CC1	-6.4	-9.4	5.1	-49.1	10983	3.0	-1.2
COc1ccc(OC)c(NC(=O)c2ccc3nc(-c4ccccc4)c(-c4ccccc4)nc3c2)c1	10.2	7.1	5.8	nt	nt	6.1	1.8
O=C(CNC(=O)c1ccc(F)cc1)N/N=C/c1cn[nH]c1-c1ccccc1	nt	nt	nt	8.3	1988	nt	-6.5
Cc1[nH]n(-c2ccccc2)c(=O)c1C=Nc1cccc2cccnc12	-2.5	6.1	1.0	-2.3	9477	1.0	12.7
Cc1ccc2nc(N3C(=O)C(O)=C(C(=O)c4ccco4)C3c3ccc(C)o3)sc2c1 (configuration not stated)	nt	nt	nt	-32.5	6503	nt	-14.6
CCc1noc(C)c1C(=O)N(C)CC(=O)Nc1ccc(OC)cc1	2.0	6.9	2.5	3.5	?	0.9	1.6
COc1ccc(/C=C(\C#N)c2n[nH]c(Cn3cncn3)n2)cc1	0.3	4.6	1.2	-29.4	4444	1.6	8.8
O=C(CSc1ccccc1Cl)N1CCC(c2nc3ccccc3s2)CC1	nt	nt	97.2*	-24.0	4905	95.9*	-7.2
CC1CCN(C(=O)C2CCN(C(=O)c3ccc(C(C)(C)C)cc3)CC2)CC1	19.9	12.1	5.9	-5.9	5581	3.5	-5.8
COc1ccc(CCN2C(=O)CC(N3CCN(S(=O)(=O)c4ccccc4)CC3)C2=O)cc1OC (configuration not stated)	6.7	-0.2	3.9	6.8	4397	5.5	-4.9
COc1ccc(C=NNC(=O)c2cc(-c3ccccc3OC)nc3ccccc23)cc1COC(C)=O	-0.6	14.3	-0.2	nt	nt	-5.2	nt
c1ccc(NNC2=NCCS2)cc1	10.6	-1.1	11.9	-3.0	2869	24.7	-0.4
O=C(NCc1ccc(F)cc1)C1(S(=O)(=O)c2ccc(Cl)cc2)CC1	0.6	-3.8	2.7	2.8	5791	4.3	-0.3
O=C(C(=C1NCCN1)n1cncn1)c1ccccc1	6.9	0.1	3.2	-25.4	10939	5.2	6.1
O=c1cc2c(nn1Cc1ccc(Cl)cc1Cl)-c1ccccc1CC2	nt	nt	-10.4	-1.1	3340	-7.4	-2.8
NC(=S)N/N=C/c1ccc(-c2cc(Cl)ccc2Cl)o1	nt	nt	nt	-24.6	6767	nt	-2.9
Cc1cc(Oc2ccc(=O)[nH]n2)nc(Cl)n1	0.9	4.5	5.8	-18.0	4224	4.8	-15.1
C/C(=N/NC(=O)c1cccc(N2CCCC2=O)c1)c1ccc(Br)cc1	nt	nt	nt	-27.9	3829	nt	-14.7
Cc1c(Cc2ccc3c(c2)OCO3)sc(NC(=O)c2ccccc2)c1C(N)=O	10.7	3.3	-4.9	-10.2	4026	-9.3	0.8
O=C1CCC(=O)N1c1ccccc1OS(=O)(=O)c1ccccc1	3.4	0.5	2.3	-1.5	3996	0.8	-4.8
CCOCCCNC(=O)c1cccs1	6.4	6.3	-2.9	-13.7	2862	1.4	-2.1
CC(=O)OCCOc1nc(N(C)C)nc(N(C)C)n1	3.0	0.8	5.5	-30.8	?	9.9	-1.7
CCOC(=O)N1CCN(C(=O)c2ccc3c(SCC(=O)O)c4c(nc3c2)CCCC4)CC1	3.3	2.4	8.3	11.2	4539	-3.9	0.4
COc1ccc(NC(=O)COC(=O)c2c(C)noc2C)c(OC)c1	5.2	5.8	5.7	-12.9	2505	4.7	-9.6
CC(/C=N/NC(=O)Cc1cccn1C)=C\c1ccco1	nt	nt	nt	-17.2	22954*	nt	1.6
Cc1c(CN2CCCC(C(=O)Nc3cccc(-n4cccn4)c3)C2)cnn1C (configuration not stated)	10.9	8.9	3.6	-13.0	5323	-0.2	-4.9
CCO[C@H]1OC(C(=O)NCc2nc3ccccc3[nH]2)=C[C@@H](c2csc3ccccc23)[C@@H]1CCCO	nt	nt	nt	-14.5	12770	nt	8.3
COC(=O)Cc1c(C)c2ccc(OCC(C)=O)c(C)c2oc1=O	nt	nt	-2.3	-44.2	2615	0.0	-3.8

Bioassay records as filed in PubChem BioAssay.
